Screening data (PubChem)
Mtb bLac sens = beta-lactam sensitization of Mtb H37Rv | M. tuberculosis H37Rv growth with meropenem, percent inhibition; hits of this screen are not shown here | inhibition, % at 25 µM | 0.27% of 330,000 active | AID 434955;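 active = about 74% or more and at least 40 points above the plate without the antibiotic, then above 30% in a dose series; inconclusive = first-round hits that could not be retested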;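 also: growth measured after seven days incubation then overnight dye step; 0% = bacteria only wells and 100% = bacteria with antibiotic; twin plates without the antibiotic show which effects depend on it; some results filed as inactive read as strong as hits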
The depositor's hits bear a star; u = inconclusive. A portion of the library; count on the stated rates, not on these rows.

SMILES | Mtb bLac sens
CCNC(=O)NC(=O)CSc1ccc(S(=O)(=O)N2CCOCC2)cn1 | 4
COCCn1c(O)c(/C=N/NC(=O)CSC(=S)N2CCCC2)c(=O)[nH]c1=S | -4
COc1ccccc1N1CCN(C(=O)c2cc3c(=O)n4cccc(C)c4nc3s2)CC1 | 2
COc1ccc(NC(=O)c2nc3nccc(C)n3n2)cc1S(=O)(=O)N1CCOCC1 | -1
COCCN(CC(=O)Nc1cccc(C)c1C)C(=O)Cn1c(=O)cnc2ccccc21 | -13
O=S(=O)(Nc1ccc2cn[nH]c2c1)c1cc(Br)ccc1Br | -7
Cc1cc(C)c(CN2CCN(C(=O)Cn3ccc(N)nc3=O)CC2)c(C)c1 | 4
CC(OC(=O)c1ccccc1C(=O)N(C)C1CCCCC1)C(=O)NC1(C#N)CCCCC1 (centres undefined) | 2
Cc1ccc(/C=C/S(=O)(=O)NCC(=O)OCC(=O)Nc2ccc(C(=O)N(C)C)cc2)cc1 | 2
O=C(CCc1nc(-c2ccccc2)no1)Nc1cccc(C(=O)NC2CC2)c1 | 1
CC(C)NS(=O)(=O)c1ccc(NC(=O)C(C)OC(=O)CCC2CCCC2)cc1 (centres undefined) | -6
COc1ccccc1CNC(=O)c1cc(-c2ccccc2C)nn1CC1CC(c2cccnc2)=NO1 (centres undefined) | 3
CC(=O)N1CCN(C(=O)c2cccc(S(=O)(=O)N3c4ccccc4CC3C)c2)CC1 (centres undefined) | 3
Cc1ccc(C(=O)NCC(=O)OCN2C(=O)c3ccccc3C2=O)cc1C | 6
COCCn1c(SCC(=O)c2c(N)n(C3CC3)c(=O)[nH]c2=O)nc2ccccc21 | -6
COc1cc(NC(=O)COc2cccc(C)c2C)ccc1NC(=O)c1ccco1 | -3
CC1(C)CCC[C@]2(C)[C@H]3Cc4cc(O)ccc4O[C@]3(C)CC[C@@H]12 | 6
C[C@H](CO)N1C[C@H](C)[C@@H](CN(C)S(C)(=O)=O)Oc2ccc(NC(=O)C3CC3)cc2C1=O | 1
O=C(COC(=O)c1ccccc1)Nc1cc(S(=O)(=O)N2CCCCCC2)ccc1Cl | -6
COc1ccc(S(=O)(=O)N2CCCCC2)cc1NC(=O)CCNC(=O)c1ccccc1Cl | 1
CC(C(=O)Nc1ccccc1)N1CCN(C(=O)c2ccco2)CC1 (centres undefined) | -5
O=C(c1ccc(Cl)s1)N1CCN(S(=O)(=O)c2ccc(Cl)cc2)CC1 | -4
COc1ccccc1NS(=O)(=O)c1cccc(C(=O)NNC(=O)c2ccc(Cl)nc2)c1 | 3
CS(=O)(=O)c1cccc(-c2csc(N3CCC(C(N)=O)CC3)n2)c1 | 1
C[C@]12CCC3C(CC[C@H]4C[C@@H](O)CC[C@]34C)C1CC[C@@H]2O (some centres undefined) | 1
CCc1ccccc1OCC(=O)OCC(=O)Nc1cc(C)on1 | -5
Cc1nn(C)c2ncc(C(=O)c3ccccc3O)cc12 | -4
Cc1ccccc1/C=C/C1=NCCN1 | -5
O=C(COC(=O)Cc1ccccc1F)NCCc1ccccc1 | -4
NS(=O)(=O)c1ccc(CNC(=S)NC(=O)c2ccco2)cc1 | -1
O=C(CC1CCCC1)NNC(=O)c1ccc(Br)cc1 | 2
CC(C)(C)[C@@H]1COC(=O)[C@H](Cc2ccc(F)cc2)CC/C=C\C[C@@H](CC(=O)N(CCO)Cc2ccccc2)C(=O)N1 | -4
O=C(Nc1ccccc1C(=O)O)c1cccc(NS(=O)(=O)c2ccc(Br)cc2)c1 | 3
O=C(NCc1cc(C(F)(F)F)ccc1Cl)c1cccc2c1C(=O)c1ccc(Cl)cc1S2(=O)=O | -2
CC(C)N(Cc1nccn1C)C(=O)c1ccc2oc(CCCc3ccccc3)nc2c1 | -7
CS(=O)(=O)c1ccc(-c2sc3ccccc3c2C(=O)N2CCN(c3ccc(F)cc3)CC2)cc1 | 3
O=[N+]([O-])c1cc(Cl)c(Cl)c(Cl)c1Cl | -2
Cc1cccc(C(=O)OCC(=O)N2CCc3ccccc3C2)c1O | 91
CC(Sc1nc(N)cc(N)n1)C(=O)NCCC1=CCCCC1 (centres undefined) | 0
CN(CC(=O)Nc1ccc(Cl)c(C(F)(F)F)c1)C(=O)CCCNC(=O)c1ccc(Cl)cc1 | -1
CC(OC(=O)C(C)Oc1ccccc1)C(=O)Nc1ccc(S(=O)(=O)N2CCCCC2)cc1 (centres undefined) | -3
COc1ccc(NS(=O)(=O)c2cccc(C(=O)NN=C(C)c3ccco3)c2)cc1 | -3
NC(=O)c1cccc(NC(=O)Nc2ccc(Cl)cc2)c1 | -2
CSCCC(NC(=O)COc1ccccc1)C(=O)N(C)Cc1ccc(Cl)cc1Cl (centres undefined) | -2
CC1CCCCN1C(=O)c1ccc(C(=O)c2ccccc2)cc1 (centres undefined) | -7
COc1ccc(C(=O)Nc2ccc3c(c2)OCCO3)cc1S(=O)(=O)N1CCOCC1 | -3
C[C@H](CO)N1C[C@H](C)[C@@H](CN(C)CC2CCCCC2)Oc2c(NC(=O)Cc3ccccc3)cccc2C1=O | 7
O=C(CSc1nnc(C2CC2)n1Cc1ccccc1)N1CCNC1=O | -4
O=C(COC(=O)CC1CCS(=O)(=O)C1)Nc1ccc(F)cc1 (centres undefined) | -3
O=C(Cn1cc(C(F)(F)F)ccc1=O)NC1CCCC1 | -5
O=C(C[C@H]1C/C=C\C[C@@H](Cc2ccc(F)cc2)C(=O)OC[C@H]2CCCN2C1=O)N[C@@H](CO)Cc1ccccc1 | -4
COc1ccc2c(COC(=O)CNS(=O)(=O)c3ccc(C)c(C)c3)cc(=O)oc2c1 | -13
Cc1ccc2nc(N3C(=O)C(O)=C(C(=O)c4ccc(C)o4)C3c3ccco3)sc2c1 (centres undefined) | 14
Cc1ccc(C)c(OCCC(=O)Nc2cc(S(=O)(=O)N3CCCCC3)ccc2C)c1 | -7
NC(=O)c1ccc(NC(=O)COC(=O)c2n[nH]c3ccccc23)cc1 | -2
COC1=CC(=O)[C@@]2([C@@H]1O)[C@@H](Cl)C[C@]13C(OC)=C(OC)C(=O)C[C@]21CCN3C | 5
O=c1oc2ccc(C#CC3(O)CCCCC3)cc2cc1-n1cc(-c2ccccn2)nn1 | 5
Cc1cnc(C(=O)OCC(=O)NCc2ccc(Cl)cc2)cn1 | -4
Nc1cc(Nc2ccccc2)ccn1 | -1
Cc1ccc(-c2nnc(SCC(=O)NCCN3C(=O)CSC3=O)n2C)cc1 | -1

The results go on.
SMILES | Mtb bLac sens
O=C(Nc1ccc(Cl)c(S(=O)(=O)N2CCOCC2)c1)c1cc2ccccc2oc1=O | -7
CCN(CC(=O)Nc1ccc2c(c1)OCCO2)C(=O)CN1C(=O)NC(C)(c2ccc(C)cc2)C1=O (centres undefined) | 1
Cc1cc(CNC(=O)COC(=O)C2CC3CCCC(C2)C3=O)cc(C)c1O (centres undefined) | -8
Cc1ccc(NC(=O)C(C)OC(=O)CSc2ccccc2)cc1 (centres undefined) | 3
Cc1cc(C)c2nc(SCC(=O)Nc3cc(C)on3)c(C#N)cc2c1 | 7
COc1cccc(CN(C)C(=O)CN2C(=O)NC(c3ccccc3)(c3ccccc3)C2=O)c1OC | -10
CCN(CC(=O)Nc1c(F)cccc1F)C(=O)CCCc1cccs1 | -3
Cc1ccc(S(=O)(=O)NCCC(=O)NC2CCCCC2C)cc1 (centres undefined) | 1
O=C(COC(=O)CCc1nc2ccccc2c(=O)[nH]1)Nc1ccc(OC(F)(F)F)cc1 | 2
CC(C)(C)N(Cc1ccccc1)C(=O)COC(=O)C1CCN(c2ccc(C(F)(F)F)cn2)CC1 | 1
CC(=O)c1c(C)[nH]c(C(=O)CN2CCN(S(=O)(=O)c3ccccc3F)CC2)c1C | 3
COc1ccc(C2=CN3CCCCC3CC2=O)cc1OC (centres undefined) | -7
CC(=O)Nc1ccc(C(=O)COC(=O)CN2C(=O)NC3(CCCCC3C)C2=O)cc1 (centres undefined) | -5
COc1cc(NC(=O)c2ccc(S(=O)(=O)N(C)c3ccccc3)cc2)cc(OC)c1 | -4
CCN(CC(=O)Nc1ccc2c(c1)OCCO2)C(=O)CCOc1ccccc1 | 18
O=C(Cc1cccc(NC(=O)C2CCN(C(=O)C3CCC3)CC2)c1)Nc1cccc(C(=O)N2CCCC2)c1 | 6
N#Cc1ccccc1OCC(=O)NNC(=O)CCC1CCCC1 | -1
CC(OC(=O)C1CCCCC1)C(=O)Nc1ccc(S(N)(=O)=O)cc1 (centres undefined) | -7
Cc1noc(C)c1NC(=O)N(C)C[C@H]1Oc2c(NS(=O)(=O)c3cn(C)cn3)cccc2C(=O)N([C@H](C)CO)C[C@@H]1C | -2
CCOc1ccc(NC(=O)CN2CCCC2c2cccs2)cc1S(=O)(=O)N1CCCC1 (centres undefined) | -5
COC(=O)c1ccc(COC(=O)CNC(=O)c2cccc(OC)c2)o1 | 0
CCc1cccc(C)c1NC(=O)CCCN1C(=O)CN(C)C1=O | -4
Cc1cccc(NC(=O)CNC(=O)CCNC(=O)c2ccc(C(C)(C)C)cc2)c1C | -1
COc1ccc(S(=O)(=O)NCCC(=O)NC2CCCCC2C)cc1[N+](=O)[O-] (centres undefined) | -1
CC(C(=O)N1CCc2ccccc21)N1CCN(S(=O)(=O)c2cccc(C(F)(F)F)c2)CC1 (centres undefined) | -7
CCN(CC(=O)Nc1c(F)cccc1F)C(=O)CNC(=O)c1ccc2ccccc2c1 | -3
Cc1cc(C)c(OCCOCCN2CCN(C)CC2)c(Cl)c1 | 1
COc1ccc(C)cc1NC(=O)C1CCCN1S(=O)(=O)c1ccccc1F (centres undefined) | -3
CC(CC(=O)OCC(=O)NC1CCS(=O)(=O)C1)c1ccccc1 (centres undefined) | -3
O=C(NCc1ccncc1)c1cccc(NS(=O)(=O)c2ccc(F)c(F)c2)c1 | 4

Fetched one by one from the entries so far, 2 records:
SMILES | Mtb bLac sens
O=C(NCc1ccncc1)c1cccc(NS(=O)(=O)c2ccc(F)c(F)c2)c1 | 4
CC(OC(=O)C1CCCCC1)C(=O)Nc1ccc(S(N)(=O)=O)cc1 (centres undefined) | -7

Other records follow.
SMILES | Mtb bLac sens
CC[C@H]1CCCCc2ccccc2[C@@H](C(=O)C[C@@H](O)CC(C)=O)OC1=O | -6
CC(C#N)(NC(=O)CN1CCN(S(=O)(=O)c2ccccc2C#N)CC1)C1CC1 (centres undefined) | -6
CCC(C(=O)N1C[C@H]2C[C@@H](C1)c1cccc(=O)n1C2)c1ccccc1 (some centres undefined) | -6
N#Cc1ccc(NC(=O)CCNC(=O)c2ccco2)cc1Cl | 0
O=C1C=CC(=C(c2ccc(O)cc2)c2ccc(O)cc2)C=C1 | 55
Cc1ccc(OC(C)C(=O)Nc2ccncc2)cc1C (centres undefined) | -6
C[C@@H](C(=O)NC1CCCCC1)N1C(=O)N2CCc3c([nH]c4ccccc34)[C@@]2(C)C1=O | -3
COC(=O)C1=C(C)N(Cc2ccccc2)C(=NCCc2c[nH]c3ccccc23)N[C@H]1c1ccccc1 | 100
COc1ccc(S(=O)(=O)N2CCCCCC2)cc1NC(=O)CCCOc1ccccc1 | 5
CSCCC(NC(=O)c1ccccc1)C(=O)N1CCN(C(C)=O)CC1 (centres undefined) | -5
Oc1cc(NCc2ccc(Cl)cc2)cc2cccnc12 | 3
CC(=O)N1c2ccccc2[C@H](C)[C@H]1C | -6
O=C(CNC(=O)Cc1ccccc1)N=Nc1c(O)[nH]c2ccccc12 | -2
CCc1cccc(C)c1NC(=O)CN(C)C1=NS(=O)(=O)c2ccccc21 | -1
Cc1cc(OCCN2CCN(S(=O)(=O)c3ccccc3F)CC2)ccc1C(C)C | 7
CC(Nc1ccc2ccccc2c1)C(=O)N/N=C/c1ccncc1 (centres undefined) | -1
N=c1c(C(=O)NCc2ccccc2)cc2c(=O)n3ccccc3nc2n1CCCN1CCOCC1 | -1
C[C@H](CO)N1C[C@H](C)[C@@H](CN(C)S(=O)(=O)c2ccc(F)cc2)Oc2ccc(NS(=O)(=O)c3ccc(F)cc3)cc2C1=O | -1
O=C(NN1CCOCC1)c1ccc(Cl)cc1Cl | 0
O=C(Nc1ccc(Cl)cc1)C1C2C=CC3(O2)C1C(=O)N(CCCN1CCCCC1)C3C(=O)NC1CCCCC1 (centres undefined) | -6
CCCN(CC(=O)Nc1ccccc1OC)C(=O)CN1C(=O)NC2(CCCCC2)C1=O | -2
COC(=O)C1=C(c2c(C)noc2C)C[C@@H]2CC[C@H]1N2C(=O)NCCO | -1
O=C(CCN1C(=O)/C(=C/c2ccccc2)SC1=S)NCCCN1CCOCC1 | -4
COc1ccc(NS(=O)(=O)c2cc(NC(=O)CC(C)(C)C)ccc2N2CCCC2)cc1 | -2
COc1cc(Cl)ccc1OCc1cc(C(=O)N2CCCC(OC)C2)no1 (centres undefined) | u
CCOc1cc(C#N)ccc1OCC(=O)N1CCc2ccccc2C1 | 0

16 entries out of the list, arranged by heavy-atom count, highest first:
SMILES | Mtb bLac sens
Cc1noc(C)c1NC(=O)N(C)C[C@H]1Oc2c(NS(=O)(=O)c3cn(C)cn3)cccc2C(=O)N([C@H](C)CO)C[C@@H]1C | -2
CCN(CC(=O)Nc1ccc2c(c1)OCCO2)C(=O)CN1C(=O)NC(C)(c2ccc(C)cc2)C1=O (centres undefined) | 1
CS(=O)(=O)c1ccc(-c2sc3ccccc3c2C(=O)N2CCN(c3ccc(F)cc3)CC2)cc1 | 3
COc1ccc(S(=O)(=O)N2CCCCCC2)cc1NC(=O)CCCOc1ccccc1 | 5
Cc1cccc(NC(=O)CNC(=O)CCNC(=O)c2ccc(C(C)(C)C)cc2)c1C | -1
O=C(CCc1nc(-c2ccccc2)no1)Nc1cccc(C(=O)NC2CC2)c1 | 1
Cc1cc(CNC(=O)COC(=O)C2CC3CCCC(C2)C3=O)cc(C)c1O (centres undefined) | -8
CCc1cccc(C)c1NC(=O)CN(C)C1=NS(=O)(=O)c2ccccc21 | -1
Cc1cc(C)c2nc(SCC(=O)Nc3cc(C)on3)c(C#N)cc2c1 | 7
O=C(c1ccc(Cl)s1)N1CCN(S(=O)(=O)c2ccc(Cl)cc2)CC1 | -4
CC1CCCCN1C(=O)c1ccc(C(=O)c2ccccc2)cc1 (centres undefined) | -7
O=C1C=CC(=C(c2ccc(O)cc2)c2ccc(O)cc2)C=C1 | 55
O=S(=O)(Nc1ccc2cn[nH]c2c1)c1cc(Br)ccc1Br | -7
O=C(CC1CCCC1)NNC(=O)c1ccc(Br)cc1 | 2
O=C(NN1CCOCC1)c1ccc(Cl)cc1Cl | 0
Cc1ccccc1/C=C/C1=NCCN1 | -5
